Mtb H37Rv = M. tuberculosis H37Rv growth inhibitors, H37Rv strain (AID 1626); M. tuberculosis H37Rv growth inhibition; higher % means a stronger effect; one-dose inhibition, % at 10 µM; IC50 in µM for titrated hits; actives 0.95% (n = 220,000);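 active = confirmed in a dose series; inconclusive = inhibition above 80% but not taken into the dose series; inactive = below 80% or under 30% at every dose of the series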;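 note: bacteria incubated seven days before Alamar blue readout; 0% = bacteria only wells and 100% = bacteria with antibiotic wells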
RecA splice inh = Mtb RecA intein splicing inhibitors, primary screen, biochemical, fluorescence, HTS; Protein RecA (Mycobacterium tuberculosis (strain ATCC 25618 / H37Rv)), P9WHJ3; cell-free RecA intein splicing; inhibition, %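 (about 9 µM by stock and volumes)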; actives 0.75% (n = 290,000); AID 2221, 2009; in the data active = inhibition above about 30%; inconclusive = no clear call, values can overlap the other calls;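 note: 0% = vehicle wells and 100% = reference inhibitor control wells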
Target sequence (P9WHJ3 whole entry, looked up, canonical isoform): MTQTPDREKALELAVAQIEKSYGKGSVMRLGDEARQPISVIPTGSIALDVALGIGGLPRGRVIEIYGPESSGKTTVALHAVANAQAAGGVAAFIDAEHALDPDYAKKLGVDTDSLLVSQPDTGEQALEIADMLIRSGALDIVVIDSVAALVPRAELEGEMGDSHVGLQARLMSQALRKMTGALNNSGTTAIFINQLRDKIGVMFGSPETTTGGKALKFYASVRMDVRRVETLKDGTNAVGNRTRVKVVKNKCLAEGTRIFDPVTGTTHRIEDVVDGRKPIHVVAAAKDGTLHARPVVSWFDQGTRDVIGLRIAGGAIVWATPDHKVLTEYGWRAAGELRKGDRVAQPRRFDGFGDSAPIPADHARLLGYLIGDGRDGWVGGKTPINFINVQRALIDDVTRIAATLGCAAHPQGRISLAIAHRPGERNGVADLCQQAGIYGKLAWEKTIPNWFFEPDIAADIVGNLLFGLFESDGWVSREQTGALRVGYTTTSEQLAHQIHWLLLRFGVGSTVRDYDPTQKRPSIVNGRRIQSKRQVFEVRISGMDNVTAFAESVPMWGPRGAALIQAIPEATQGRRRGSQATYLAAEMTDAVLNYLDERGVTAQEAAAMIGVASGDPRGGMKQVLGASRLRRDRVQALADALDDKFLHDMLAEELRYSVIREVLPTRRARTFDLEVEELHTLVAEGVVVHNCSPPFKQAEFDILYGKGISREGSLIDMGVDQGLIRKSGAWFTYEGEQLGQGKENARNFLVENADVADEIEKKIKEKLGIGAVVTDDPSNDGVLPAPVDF
Arbovirus inh = antivirals against arbovirus infection, primary screen, cell-based, full library, 10K replicate subset; arbovirus infection cell-based antiviral screen; inhibition, % at 10 µM; actives 0.37% (n = 200,000);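 active = inhibition from about 30%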;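 note: bluetongue infection of BSR cells; cell survival read as ATP light after 72 h; 0% = infected wells without compound and 100% = uninfected wells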
YopH PTP inh = YopH tyrosine phosphatase inhibitors, primary screen, biochemical, fluorescence Ex485/Em525; YopH tyrosine phosphatase [Yersinia enterocolitica]; inhibition, %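 (about 10 µM by stock and volumes)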; actives 0.16% (n = 140,000); AID 898, 2007;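 active = inhibition of 50% or more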;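 note: controls were vehicle for no effect and minimum signal wells for full effect; inactives centre near -20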
Mtb bLac sens = beta-lactam sensitization of Mtb H37Rv, H37Rv; M. tuberculosis H37Rv growth with meropenem, percent inhibition; hits of this screen are not shown here; inhibition, % at 25 µM; actives 0.27% (n = 330,000); AID 434955, 2010;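 active = about 74% or more and at least 40 points above the plate without the antibiotic, then above 30% in a dose series; inconclusive = first-round hits that could not be retested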;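 note: growth measured after seven days incubation then overnight dye step; 0% = bacteria only wells and 100% = bacteria with antibiotic; twin plates without the antibiotic show which effects depend on it; some results filed as inactive read as strong as hits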
Arbovirus inh repeat = recorded beside Arbovirus inh, whose call it bears; inhibition, %; measured here: 10K subset replicate screen; many hits read low in the repeat;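 first of two repeat runs on a subset; 0% = infected and 100% = uninfected wells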
Numbers without * were called inactive. These rows are one share of the data; rates above refer to the full screens.

The opening two compounds (preview)
Results for Cc1ccc(CCC(=O)Nc2ncc(Cc3cccc(Cl)c3Cl)s2)o1 ?
Mtb H37Rv: 8%; RecA splice inh: -1.0; Arbovirus inh: -5; YopH PTP inh: -26; Mtb bLac sens: 1

How did COc1cc(C(=O)Oc2cc(C)[nH]c(=O)c2[N+](=O)[O-])cc(OC)c1OC do in these assays?
RecA splice inh: -1.7; Arbovirus inh: 6; YopH PTP inh: -43; Mtb bLac sens: 0

The whole of this part, previewed entries included:
Results for Cc1ccc(CCC(=O)Nc2ncc(Cc3cccc(Cl)c3Cl)s2)o1 ?
Mtb H37Rv: 8%; RecA splice inh: -1.0; Arbovirus inh: -5; YopH PTP inh: -26; Mtb bLac sens: 1

How did COc1cc(C(=O)Oc2cc(C)[nH]c(=O)c2[N+](=O)[O-])cc(OC)c1OC do in these assays?
RecA splice inh: -1.7; Arbovirus inh: 6; YopH PTP inh: -43; Mtb bLac sens: 0

What do the screens show for `CCNc1nc(NCC)nc(OCCOC(=O)COc2ccc(Cl)cc2Cl)n1`?
Mtb H37Rv: 1%; RecA splice inh: 1.7; Arbovirus inh: 5; YopH PTP inh: -4; Mtb bLac sens: 16

Results for CCn1c(=NC(=O)CCS(=O)(=O)c2ccccc2)sc2cccc(OC)c21 ?
RecA splice inh: 1.7; Mtb bLac sens: inconclusive

What do the screens show for `Cc1nc2ccccc2c2nc(N)nn12`?
Mtb H37Rv: -9%; RecA splice inh: 0.7; Arbovirus inh: -6; YopH PTP inh: -29; Mtb bLac sens: -6

What do the screens show for `Cc1cccc(-c2n[nH]c(=S)n2/N=C/c2cccs2)c1`?
Mtb H37Rv: 4%; RecA splice inh: -0.2; Mtb bLac sens: -7

Results for C#CC[N+]1(CC#Cc2ccccc2)CCCC1 ?
Mtb H37Rv: -4%; RecA splice inh: 0.2; Arbovirus inh: 3; YopH PTP inh: -31; Mtb bLac sens: -17

Results for Cc1ccc(C(=O)NCCNc2ccc(Cl)cc2[N+](=O)[O-])o1 ?
Mtb H37Rv: -1%; RecA splice inh: 2.8; Arbovirus inh: 7; YopH PTP inh: -6; Mtb bLac sens: 6

What do the screens show for `COC(=O)c1sc(NC(=O)c2cc(C)on2)nc1C`?
RecA splice inh: 1.0; Mtb bLac sens: 3

How did Cn1c(NC(=O)c2ccc(Br)o2)cc(=O)n(C)c1=O do in these assays?
Mtb H37Rv: 0%; RecA splice inh: -4.0; Arbovirus inh: 2; YopH PTP inh: -58; Mtb bLac sens: 2

What do the screens show for `O=C(Nc1ccc(C(=O)O)cc1)/C(=C\c1ccco1)NC(=O)c1ccc(Br)o1`?
RecA splice inh: -1.4; Mtb bLac sens: 1

What do the screens show for `CCOc1ccc(-c2nnc(NC(=O)Cc3cc(OC)c(OC)c(OC)c3)o2)cc1`?
RecA splice inh: 3.8; Mtb bLac sens: -3

How did COc1ccc(/C=N/NC(=O)c2cc[n+]([O-])cc2)cc1O do in these assays?
RecA splice inh: -3.8; Mtb bLac sens: -11

Results for Cc1ccc(S(=O)(=O)N2CCN(S(=O)(=O)c3cccs3)CC2)cc1 ?
RecA splice inh: -0.8; Mtb bLac sens: 7

How did COC(=O)C1=C(C)N(CC2CCCO2)C(=O)/C1=C\c1ccc(O)cc1 (stereo not drawn) do in these assays?
Mtb H37Rv: 3%; RecA splice inh: -3.2; Arbovirus inh: 12; YopH PTP inh: 6; Mtb bLac sens: -1

What do the screens show for `COc1nc(NCCc2ccc(OC)c(OC)c2)nc(NC(C)(C)CO)n1`?
Mtb H37Rv: -3%; RecA splice inh: 0.8; Arbovirus inh: 1; YopH PTP inh: -12; Mtb bLac sens: -7

Results for CC1CCN(Cc2ccc(-c3nn[nH]n3)cc2)CC1 ?
Mtb H37Rv: -10%; RecA splice inh: -0.5; Arbovirus inh: 7; YopH PTP inh: -13; Mtb bLac sens: -19

What do the screens show for `Cc1cc2oc(=O)cc(CN3CCOCC3)c2cc1C`?
Mtb H37Rv: 1%; RecA splice inh: -2.7; Arbovirus inh: 8; YopH PTP inh: -53; Mtb bLac sens: -4

Results for O=C1OC(Nc2nc3ccccc3s2)c2ccccc21 (stereo not drawn) ?
Mtb H37Rv: -3%; RecA splice inh: -0.8; Arbovirus inh: -1; YopH PTP inh: -52; Mtb bLac sens: 2; Arbovirus inh repeat: 2

What do the screens show for `CCOc1cc(/C=N/N=C2/NC(=O)C(CC(=O)O)S2)ccc1OS(=O)(=O)c1ccc(C)cc1` (stereo not drawn)?
Mtb H37Rv: -15%; RecA splice inh: 3.5; Arbovirus inh: 7

How did Cc1ccc(S(=O)(=O)N2CCCCC2)cc1NC(=O)COC(=O)Cc1cccc2ccccc12 do in these assays?
Mtb H37Rv: -1%; RecA splice inh: 5.5; Arbovirus inh: 5; YopH PTP inh: -14; Mtb bLac sens: -1

How did O=C(CN1C2CCC1CC(O)(c1cccnc1)C2)Nc1ccc2c(c1)OCO2 (stereo not drawn) do in these assays?
Mtb H37Rv: 1%; RecA splice inh: 2.1; Arbovirus inh: -2; YopH PTP inh: -27; Mtb bLac sens: -6

What do the screens show for `Cn1cccc1C(=O)C(=O)Nc1cc(Cl)cc(Cl)c1`?
Mtb H37Rv: 5%; RecA splice inh: 0.7; Arbovirus inh: -14; YopH PTP inh: -36; Mtb bLac sens: 15

What do the screens show for `CCc1ccc(N2C(=O)C(Cl)=C(N3CCOCC3)C2=O)cc1`?
Mtb H37Rv: inconclusive; RecA splice inh: 78*; Arbovirus inh: 3; YopH PTP inh: -37; Mtb bLac sens: 83

How did COc1cccc(-c2nnn(CC(=O)N(CC(C)C)C3CCS(=O)(=O)C3)n2)c1 (stereo not drawn) do in these assays?
RecA splice inh: -2.4; Mtb bLac sens: -12

How did CC(=O)Nc1ccc(S(=O)(=O)NCC2CCC(C(=O)NCCCN3CCCC3=O)CC2)cc1 (stereo not drawn) do in these assays?
Mtb H37Rv: 9%; RecA splice inh: -3.2; Arbovirus inh: 4; YopH PTP inh: -25; Mtb bLac sens: -7

What do the screens show for `COc1ccc2nc(NC(=O)CSc3nc(C)cc(=O)[nH]3)sc2c1`?
Mtb H37Rv: -6%; RecA splice inh: 2.3; Arbovirus inh: 7; YopH PTP inh: -27; Mtb bLac sens: 6

What do the screens show for `Cc1cc(C)cc(OCC(=O)NNC(=O)c2cc3ccccc3o2)c1`?
Mtb H37Rv: 6%; RecA splice inh: 0.0; Arbovirus inh: 3; YopH PTP inh: -36; Mtb bLac sens: 77

Results for Fc1ccc(-n2cc(-c3ccccc3)c3c(N4CCOCC4)ncnc32)cc1 ?
Mtb H37Rv: 8%; RecA splice inh: -0.6; Arbovirus inh: -22; Mtb bLac sens: 73

Results for COCc1cc(C)nc(N2CCNCC2)c1C#N ?
Mtb H37Rv: -11%; RecA splice inh: -0.6; Arbovirus inh: -5; YopH PTP inh: -11; Mtb bLac sens: -7

Results for CCCCNC(=O)C1CCCN1S(=O)(=O)c1cccc2nsnc12 (stereo not drawn) ?
Mtb H37Rv: 8%; RecA splice inh: 0.1; Mtb bLac sens: -11

How did Cc1ccc(NC(=O)CNC(=O)Cc2cccc3ccccc23)nc1 do in these assays?
RecA splice inh: -2.2; Mtb bLac sens: -20

How did CC(C)(C)c1cc(C(=O)NNS(=O)(=O)c2ccccc2)n[nH]1 do in these assays?
Mtb H37Rv: -8%; RecA splice inh: 7.4; Mtb bLac sens: -16

What do the screens show for `O=C(NCCc1ccncc1)Nc1ccc(Cl)cc1`?
Mtb H37Rv: 1%; RecA splice inh: 1.3; Arbovirus inh: 3; YopH PTP inh: 0; Mtb bLac sens: 0

How did COc1ccc(C(=O)C2CCCN(Cc3nc4ccccc4nc3C)C2)cc1OC (stereo not drawn) do in these assays?
Mtb H37Rv: 0%; RecA splice inh: 0.4; Arbovirus inh: 0; Mtb bLac sens: 4

What do the screens show for `CSCCC(NC(=O)c1ccco1)C(=O)N1CCC(C(N)=O)CC1` (stereo not drawn)?
RecA splice inh: -3.3; Mtb bLac sens: -1

How did Cc1nc(=O)c(-c2ccccc2)c(C)n1-c1ccccc1Cl do in these assays?
RecA splice inh: -1.2; Mtb bLac sens: -4

Results for CCN(C(=O)COC(=O)c1cc2c(s1)CCCCC2)C1CCS(=O)(=O)C1 (stereo not drawn) ?
RecA splice inh: -1.9; Mtb bLac sens: 31

How did CCc1nc(CN2CCN(Cc3ccc(F)c(F)c3)C(CCO)C2)c(C)[nH]1 (stereo not drawn) do in these assays?
Mtb H37Rv: 2%; RecA splice inh: 1.5; Arbovirus inh: -9; Mtb bLac sens: 0

What do the screens show for `CCOC(=O)C1=C(C)N(CCCCCC(=O)O)C(=O)NC1c1ccccc1OS(=O)(=O)c1ccc(C)cc1` (stereo not drawn)?
Mtb H37Rv: 1%; RecA splice inh: 0.5; Mtb bLac sens: -1

What do the screens show for `O/N=C/C1=C(Cl)c2ccccc2CC1`?
Mtb H37Rv: -1%; RecA splice inh: 5.3; Arbovirus inh: 19; Mtb bLac sens: 0

How did N#Cc1c(-c2ccccc2)nc(SCC(=O)Nc2ccccc2)[nH]c1=O do in these assays?
Mtb H37Rv: 4%; Arbovirus inh: -2; YopH PTP inh: -26; Mtb bLac sens: -3

Results for Cc1cccc(NS(=O)(=O)c2cccc(C(=O)N3CC(C)OC(C)C3)c2)c1 (stereo not drawn) ?
RecA splice inh: 2.5; Mtb bLac sens: -10

How did CC(=O)Nc1ccc(NC(=O)C(C)Oc2ccccc2F)cc1 (stereo not drawn) do in these assays?
Mtb H37Rv: -7%; Arbovirus inh: 2; YopH PTP inh: 8; Mtb bLac sens: -17

Results for COC(=O)N/N=C/c1ccc([N+](=O)[O-])s1 ?
Mtb H37Rv: -2%; RecA splice inh: -4.7; Arbovirus inh: -20; YopH PTP inh: 38; Mtb bLac sens: 11

What do the screens show for `CCOc1ccccc1Oc1cn[nH]c1-c1ccc(OCC(=O)NN)cc1O`?
RecA splice inh: 3.0; Mtb bLac sens: -2

How did CCOc1ccc(NC(=O)Cn2nnc(-c3ccccc3NC(=O)c3cccs3)n2)cc1 do in these assays?
Mtb H37Rv: 2%; RecA splice inh: 0.5; Arbovirus inh: -16; YopH PTP inh: 6; Mtb bLac sens: 9

Results for Cc1onc(-c2c(F)cccc2Cl)c1C(=O)NCc1ccc(F)cc1 ?
RecA splice inh: 1.9; Mtb bLac sens: -9

What do the screens show for `O=[N+]([O-])c1ccc(N2CCCC2)nc1`?
Mtb H37Rv: -9%; RecA splice inh: 2.0; Mtb bLac sens: -6

How did COc1ccc(CCN2CC(C(=O)N(C)CCn3nc(C)cc3C)CCC2=O)cc1 (stereo not drawn) do in these assays?
RecA splice inh: 1.6; Mtb bLac sens: -3

Results for O=C(O)c1cc(NC(=S)NC(=O)C(c2ccccc2)c2ccccc2)ccc1Cl ?
Mtb H37Rv: -5%; RecA splice inh: 3.9; Arbovirus inh: 8; Mtb bLac sens: 9

What do the screens show for `CCOC(=O)c1[nH]c(C)c(C(=O)N2CCN(c3ccccc3OC)CC2)c1C`?
Mtb H37Rv: 20%; RecA splice inh: -2.0; Arbovirus inh: 22; Mtb bLac sens: 1

Results for COc1ccc(-c2sc(NC(C)=O)nc2-c2ccccc2)cc1 ?
Mtb H37Rv: 9%; RecA splice inh: -1.3; Arbovirus inh: -8; YopH PTP inh: -23; Mtb bLac sens: 2

Results for CCN1CCN(C(=O)CSc2nc3c(c(=O)n(C)c(=O)n3C)n2C)CC1 ?
RecA splice inh: 0.6; Mtb bLac sens: 2

How did Cc1ccc(NC(=O)C2CCCN(C(=O)c3ccc(Cl)cc3)C2)c(C)c1 (stereo not drawn) do in these assays?
Mtb H37Rv: -1%; RecA splice inh: 2.6; Arbovirus inh: 6; Mtb bLac sens: -4

Results for CCN1CCN(Cc2ccc(NC(=O)c3cc(NC(=O)c4cnn(-c5ccccc5)c4N)cc(OC)c3)cc2C(F)(F)F)CC1 ?
Mtb H37Rv: inconclusive; RecA splice inh: 5.5; Mtb bLac sens: 99

What do the screens show for `Cc1c(C)n2c(SCC(=O)NC3CCCCC3)nnc2[nH]c1=O`?
RecA splice inh: -0.8; Mtb bLac sens: 1

What do the screens show for `Cc1cc(C)c(NC(=O)CSc2nc3ccc(NC(=O)CSc4nnnn4-c4ccccc4)cc3s2)c(C)c1`?
Mtb H37Rv: -4%; RecA splice inh: -3.4; Arbovirus inh: -16; YopH PTP inh: -10; Mtb bLac sens: -1

An excerpt taken from the entries so far, for reference:
What do the screens show for `Cc1c(C)n2c(SCC(=O)NC3CCCCC3)nnc2[nH]c1=O`?
RecA splice inh: -0.8; Mtb bLac sens: 1

What do the screens show for `Cc1cc(C)c(NC(=O)CSc2nc3ccc(NC(=O)CSc4nnnn4-c4ccccc4)cc3s2)c(C)c1`?
Mtb H37Rv: -4%; RecA splice inh: -3.4; Arbovirus inh: -16; YopH PTP inh: -10; Mtb bLac sens: -1
